# Cruzain noTriton = cruzain (T. cruzi) inhibition without detergent. 200,000 compounds, 2.3% hits. Potency, µM, for the others: max response, negative = inhibition, hits mostly inhibitors. purified cruzain, Z-FR-AMC fluorescence, no detergent. AID 1476;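 further: plate controls were enzyme without inhibitor for no effect and buffer without enzyme for full effect; nearly all actives have a fitted effect of over 40% in size; top concentration of the series not given in the record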
# Target sequence (P25779 123-467 limits assumed): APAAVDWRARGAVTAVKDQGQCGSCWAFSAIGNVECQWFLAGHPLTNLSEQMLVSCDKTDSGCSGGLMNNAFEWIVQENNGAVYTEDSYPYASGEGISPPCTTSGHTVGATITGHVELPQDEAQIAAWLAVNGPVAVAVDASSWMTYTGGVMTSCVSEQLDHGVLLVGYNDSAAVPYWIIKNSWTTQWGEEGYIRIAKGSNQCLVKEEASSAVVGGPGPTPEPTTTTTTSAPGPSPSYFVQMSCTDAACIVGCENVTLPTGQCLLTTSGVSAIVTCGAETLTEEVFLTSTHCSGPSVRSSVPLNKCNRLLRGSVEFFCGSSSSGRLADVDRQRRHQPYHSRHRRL
#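 Detergent-free condition (0.00005% Triton X-100) in acetate buffer pH 5.5 with DTT. 1.5 nM enzyme and compound were pre-mixed 15 min, then 2 uM Z-FR-AMC substrate added; reaction progress from fluorescence change between first and third reads (60 s).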
# MARV entry inh = blocks Marburg virus binding to or entry into cells; 300,000 compounds, 1.8% hits; AID 540276; Marburg virus pseudotyped entry inhibition, cell reporter; control for the full effect not named in the record; about a third of the inactives were read at about 46 µM; Potency, µM (top dose mostly 37.8 µM), without a hit: at the highest dose activity change, negative = inhibition, actives largely listed as inhibitors; active = well fitted inhibition curve with a large enough effect; inconclusive = small, poorly fitted or top-dose-only effect, or effect the other way; inactive = flat fitted curve, though single readings scatter; tested in HEK293 cells; about a fifth of its hits are not listed in these tables; further: on the % scale 0 is the no-effect control and ±100 the full control effect; luciferase read-out
# SARS PLpro yeast = SARS-CoV PLP inhibition in yeast; S. cerevisiae expressing SARS-CoV PLpro, growth rescue; control for the full effect not named in the record; Potency, µM (titrated, usually from 32.9 µM), for the others: at the highest dose activity, positive = growth rescue; 330,000 compounds, 0.19% hits; AID 485353; active means well fitted rising curve with a large enough effect; inconclusive means small, poorly fitted or top-dose-only effect; inactive means no such curve, though single readings can be large or run the other way; further: 0% is about no effect; nearly all actives have a fitted effect of over 55% in size; growth read by luminescence after 48 h
# StopGo reporter = FMDV 2A StopGo reporter, luciferase signal. human cells with a luciferase reporter of 2A StopGo recoding; control for the full effect not named in the record. Potency, µM (series often up to 57.9 µM), inactives show at the top dose signal change, negative = less light. 410,000 compounds, 1.2% hits. AID 1159524; active = well fitted falling curve with a large enough effect; inconclusive = small, poorly fitted or top-dose-only effect; inactive = no such curve, though single readings can be large or run the other way; tested in HEK293T cells; further: on the % scale 0 is the no-effect control and ±100 the full control effect; nearly all actives have a fitted effect of over 45% in size; luciferase light after 4 h
# Lassa entry inh = inhibitors of Lassa virus binding or cell entry | Lassa virus pseudotype entry inhibition, cell reporter; control for the full effect not named in the record | Potency, µM (titrated, usually from 37.9 µM), for inactives: at the highest dose activity change, negative = inhibition, most hits filed as inhibitors | 300,000 compounds, 1.2% hits | AID 540256; active means well fitted inhibition curve with a large enough effect; inconclusive means small, poorly fitted or top-dose-only effect, or effect the other way; inactive means flat fitted curve, though single readings scatter; tested in HEK293 cells; further: on the % scale 0 is the no-effect control and ±100 the full control effect; nearly all actives have a fitted effect of over 50% in size; luciferase read-out
# Cruzain inh Det = blocks cruzain activity in presence of Triton detergent. AID 1478. Potency, µM, for the others: max response, negative = inhibition, usual class: inhibitors. 200,000 compounds, 0.43% hits. purified cruzain, Z-FR-AMC fluorescence, 0.01% Triton. P25779;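 further: plate controls were neutral wells for no effect and buffer without enzyme for full effect; nearly all actives have a fitted effect of over 40% in size; top concentration of the series not given in the record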
#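 Detergent-containing run (0.01% Triton X-100) in acetate buffer pH 5.5 with 5 mM DTT: enzyme at 1.5 nM final, 15 min compound preincubation at room temperature, then 2 uM Z-FR-AMC substrate. Activity taken as 60 s fluorescence increase at 360/450 nm.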
# NS1 inh = influenza NS1 inhibition. S. cerevisiae slowed by influenza A NS1, growth recovery by OD600. Potency, µM (doses to about 46.1 µM), for inactives: at the top dose activity, positive = more growth. 270,000 compounds, 0.4% hits; active means well fitted rising curve with a large enough effect; inconclusive means small, poorly fitted or top-dose-only effect; inactive means no such curve, though single readings can be large or run the other way; further: nearly all actives have a fitted effect of over 50% in size
#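 Read-out: OD600 growth recovery of NS1-expressing budding yeast. Cells grown overnight at 30C in -URA glucose medium, washed, resuspended and diluted 1:100 in 2% galactose assay medium, pH 6.0. Same strain lacking NS1 served as positive control.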
# RE007 growth inh = less growth of the S. pombe RE007 Vpr strain. S. pombe RE007 Vpr strain, BacTiter-Glo ATP luminescence, 24 h; control for the full effect not named in the record. Potency, µM (highest dose often 92.2 µM), for the others: at the highest dose activity change, negative = less growth. 360,000 compounds, 0.21% hits. AID 651644; active = well fitted falling curve with a large enough effect; inconclusive = small, poorly fitted or top-dose-only effect; inactive = no such curve, though single readings can be large or run the other way;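 further: on the % scale 0 is the no-effect control and ±100 the full control effect; nearly all actives have a fitted effect of over 50% in size; the assay follows cell death caused by Vpr and the record does not say whether a fall means rescue or toxicity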
#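 Fission yeast RE007 carrying one integrated HIV-1 vpr copy, seeded at OD 0.01 in PMG+AL medium with 23 nL pinned compound. Grown 24 h at 30 degrees; viability read by BacTiter-Glo luminescence after 5 min.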
# * hit, by the source's call; ? = inconclusive; · = not tested or not shown; & = joins results of further samples; [ ] = another dose, or the depositor's remark. Unless noted, the call rests on the fitted dose curve; in most records, active means well fitted curve in the direction sought with a large enough effect; inconclusive means small, poorly fitted or top-dose-only effect, or another doubt; inactive means no such curve, though single readings can be large; an effect the other way counts as inactive or inconclusive. Potency means the concentration at half of the fitted maximal effect.
Structure,SARS PLpro yeast,Cruzain noTriton,Cruzain inh Det,MARV entry inh,NS1 inh,RE007 growth inh,Lassa entry inh,StopGo reporter
Cc1ccc(-n2nnc3c(=O)n(Cc4cccc(C)c4)cnc32)cc1,4%,4%,-0.1%,·,-35%,15%,·,-15%
CCN1CCN(c2nc(-c3cccnc3)nc3ccccc23)CC1,-2%,-2%,2.6%,?,-20%,-2%,13%,·
Cn1c(SCC(=O)NC(C)(C)C)nnc1-c1ccc(C(C)(C)C)cc1,1%,21%,-0.3%,-20%,-10%,-1%,-20%,·
CC(=O)n1c2c(c3ccccc31)OC(N)=C(C#N)C2c1cccc(Cl)c1Cl (stereo not given),1%,-12%,2.6%,5%,4%,-7%,·,-24%
O=S1(=O)N=C(SCCO)c2ccccc21,2%,7%,-0.9%,0%,-1%,8%,-8%,0%
CCC(C)(C)NC(=O)C(c1cccn1C)N(Cc1ccccc1)C(=O)Cn1nnc2ccccc21 (stereo not given),2%,-15%,2.0%,1%,0%,-5%,8%,18%
CCC(=O)N1CCCc2cc(S(=O)(=O)N3CCC(N4CCCCC4)CC3)ccc21,6%,-8%,2.0%,-24%,8%,4%,6%,35%[activator]
Brc1ccc(OCCCN2CCOCC2)cc1,6%,1%,-1.3%,12%,-10%,-1%,8%,-2%
Cc1ccc(CCC(=O)Nc2ccc(C)c(C)c2)o1,-4%,·,·,·,-29%,-17%,·,25%
CCOc1ccc(NC(=O)C(C)n2c(=O)cc(C)c3c(C)nn(-c4ccccc4)c32)cc1 (stereo not given),·,-3%,-2.0%,·,·,·,-1%[46.1 µM],11%
O=C(NCc1ccccc1OC(F)(F)F)C1CCC(=O)N(CCc2ccccn2)C1 (stereo not given),·,·,·,18%,·,-7%,5%,-6%
Cc1ccc(OCC(=O)Nc2ccc(Cl)cc2)c(-n2nc3ccccc3n2)c1,2%,1%,2.8%,?,9%,-6%,?,·
CC(=O)C(=[N+]=[N-])C(=O)NCc1ccccc1,2%,-24%,1.4%,4%&4%,11%,-14%,-3%,3%
COc1cc2c(cc1OC)C(C)N(S(=O)(=O)c1cccs1)CC2 (stereo not given),0%,·,·,-11%[46.1 µM],5%,3%,-2%[46.1 µM],-13%
CC1CCN(S(=O)(=O)c2cccc(C(=O)NC3CCS(=O)(=O)C3)c2)CC1 (stereo not given),·,-6%,-0.1%,·,·,7%,0%[46.1 µM],9%&-16%
COc1ccccc1C1C(C(C)=O)=C(O)C(=O)N1CCc1ccccc1 (stereo not given),-11%,2%,-3.7%,15%,12%,11%,6%,-4%
O=C(Cc1ccccc1Cl)Nc1cc(S(=O)(=O)N2CCOCC2)ccc1N1CCOCC1,8%,·,·,-13%,·,8%,-7%,-2%
OCCNc1ccc(Cl)cc1,6%,15%,1.1%,-4%,-5%,1%,-7%,-10%
Cc1ccc(S(=O)(=O)NCC(=O)N(CC2CCCO2)C(C(=O)NCC2CCCO2)C(C)C)cc1 (stereo not given),-2%,·,·,-4%[46.1 µM],1%,-3%,17%,5%
O=S(=O)(O)c1cnccc1Nc1cccc(C(F)(F)F)c1,·,·,·,?,·,4%,-5%,-14%
O=C(N/N=C/c1c[nH]c2ccccc12)c1cccs1,1%,·,·,24%[46.1 µM],2%,-17%,13%[46.1 µM],31%[activator]
COc1cc([N+](=O)[O-])ccc1NC(=O)Nc1nc2c(s1)CCCC2,-10%,?,-0.2%,?,3%,4%,5%,-11%
O=c1[nH]c2cc(Cl)ccc2n1-c1ccccc1,4%,1%,3.9%,1%,-5%,7%,-15%,-14%
COc1ccc(C(=O)NCc2ccc3c(c2)OCO3)cc1S(=O)(=O)NCc1ccc(Cl)cc1,-4%,-1%,-3.1%,?,1%,5%,-30%,11%
N=C1c2ccccc2-c2ccccc21,·,·,·,?,·,17%,-13%[46.1 µM],5%
O=[N+]([O-])c1ccccc1S(=O)(=O)N1CCc2ccccc2C1,0%,·,·,18%[46.1 µM],-2%,-3%,5%[46.1 µM],-13%
CCN(CC)CCCN(C(=O)c1ccc(OC)cc1)c1nc(-c2ccc(OC)cc2)cs1,-1%,·,·,?,-21%,0%,?,4%
O=C(c1ccc(F)cc1)C1CCN(CCn2c(=S)[nH]c3ccccc3c2=O)CC1,8%,8%,-4.2%,·,·,·,·,-10%
O=C(N/N=C/c1cc(Br)ccc1O)c1ccccc1Cl,·,-1%,-9.2%,?,-49%,?,?,1%
CCOC(=O)c1c(-c2ccccc2)n(C)c2ccc(O)cc12,-1%,3%,-7.1%,?,-1%,-7%,?,?

# Next section:
Structure,SARS PLpro yeast,Cruzain noTriton,Cruzain inh Det,MARV entry inh,NS1 inh,RE007 growth inh,Lassa entry inh,StopGo reporter
Cc1ccccc1OCC(=O)Nc1ccc2[nH]c(=O)sc2c1,·,-10%,0.2%,-6%[46.1 µM],·,·,7%[46.1 µM],-20%
CCOC(=O)N1CCN(C(=O)c2cccc(N3C(=O)NC4CC3(C)Oc3ccccc34)c2)CC1 (stereo not given),-3%,·,·,-14%[46.1 µM],12%,10%,11%[46.1 µM],-10%
CCN(CC(=O)Nc1c(F)cccc1F)C(=O)/C=C/c1ccc2ccccc2n1,·,·,·,?,·,26%,0%,9%
CCCCn1c(O)c(/C(CC)=N/N2CCCCC2c2cccnc2)c(=O)[nH]c1=S (stereo not given),-11%,3%,-13%,?,14%,-4%,?,0%
COc1ccc(Nc2nc3ccc(OC)cc3s2)cc1,-1%,·,·,-27%[46.1 µM],·,-16%,?,63%[activator]
Cc1c(-c2ccc(OCc3ccccc3)cc2)nc2ccccc2c1C(=O)O,2%,·,·,?,6%,1%,?,32%[activator]
Cc1ccc(NC(=O)CC(C)CC(=O)NCc2ccccc2)cc1Cl (stereo not given),-3%,·,·,·,-15%,?,·,-16%
COc1ccccc1/C=C/C=N/NC(=O)CCn1cnc2ccccc21,-2%,·,·,?,-2%,-1%,?,-6%
CC(=O)Nc1ccc(CN(C)CC2CCCN(CCc3cccc(C(F)(F)F)c3)C2)cc1 (stereo not given),-6%,·,·,10µM*,13%,-24%,?,-29%
C/C(=N\O)C(C)/[N+]([O-])=C/c1nc(C)c(C)n1O (stereo not given),·,·,·,12%,·,-1%,8%,-25%
CCC(=O)N(Cc1cc2c(C)ccc(C)c2[nH]c1=O)C1CCCCC1,1%,-8%,3.2%,4%,-6%,-1%,-13%,?
COc1ccc(C2C(=O)N(C3CCCCCC3)CC(=O)N2CCC2=CCCCC2)cc1 (stereo not given),·,-6%,0.9%,·,·,·,-3%[46.1 µM],-28%
Cc1ccc(NC(=O)c2c(NC(=O)Cc3ccccc3)sc3c2CCC3)cc1,·,-5%,-1.1%,·,·,·,-11%[46.1 µM],-23%
O.O.O.O=S(=O)([O-])OC[C@H]1O[C@@H](O[C@]2(COS(=O)(=O)[O-])O[C@H](OS(=O)(=O)[O-])[C@@H](OS(=O)(=O)[O-])[C@@H]2OS(=O)(=O)[O-])[C@H](OS(=O)(=O)[O-])[C@@H](OS(=O)(=O)[O-])[C@@H]1OS(=O)(=O)[O-].[Al],-3%,4%,-2.6%,2%,0%,·,-2%,·
CC(C)(C)c1ccccc1NC(=O)COC(=O)CN1C(=O)NC2(CCCC2)C1=O,2%,·,·,5%,·,-21%,20%,2%
CN(CC(=O)Nc1ccc2c(c1)OCCO2)CC(=O)Nc1ccc(F)c(F)c1F,-1%,·,·,15%,·,-8%,5%,3%
CCC(=O)Nc1ccccc1C(=O)OCC(=O)c1ccccc1,5%,-7%,-1.1%,-10%,-16%,2%,?,33%[activator]
CC(=O)CSc1nnc(CN2C(=O)CSc3ccc(C(F)(F)F)cc32)n1C,0%,·,·,·,0%,-10%,·,7%
Cc1ccc(N)cc1Cl,·,-9%,1.2%,·,·,5%,·,4%
FC(F)(F)c1cccc(-n2c(Cn3nnc4ccccc43)n[nH]c2=S)c1,-1%,·,·,0%[46.1 µM],-9%,18%,12%[46.1 µM],12%
O=C(N/N=C/c1cccc([N+](=O)[O-])c1)c1cc[n+](CCO)cc1,-1%,·,·,·,-5%,8%,·,0%
CCc1ccc(CCC(=O)Nc2ccc(C(=O)O)cc2)o1,18%,·,·,·,14%,17%,·,-8%
CCOC(=O)C1=NO[C@@]2(C=C(Br)C(=O)[C@H]3O[C@H]32)C1,·,-3%,0.6%,?,·,·,?,·
CCOC(=O)COc1c(C(=O)OC)sc2ncccc12,-3%,·,·,-7%,·,-8%,-1%,-3%
O=c1[nH]c(=O)n(C2CCCCC2)c(O)c1C1=Nc2ccccc2SC(c2ccccc2)C1 (stereo not given),·,-8%,-6.4%,2%[46.1 µM],·,·,?,41%[activator]
Cc1ccc(C)c(-n2c(Cc3cc(=O)[nH]c(=O)[nH]3)nnc2SC(C)C)c1,-3%,1%,0.3%,·,5%,-5%,·,-12%
COC(CNC(=O)C(=O)NCC1CCCN1S(=O)(=O)c1cccs1)OC (stereo not given),2%,·,·,8%,·,0%,-4%,-6%
O=C1CN(C(=O)C2CC2)c2ccccc2N1,15%,5%,4.7%,16%[46.1 µM],-2%,-7%,0%,13%
S=c1nc(C23CC4CC(CC(C4)C2)C3)[nH][nH]1,0%,·,·,·,0%,13%,·,-17%
CC(C)[C@H](NC(=O)c1ccccc1Cl)C(=O)OCC(=O)NC(=O)NC1CCCC1,1%,·,·,6%,5%,-8%,-1%,-20%

# (more compounds)
Structure,SARS PLpro yeast,Cruzain noTriton,Cruzain inh Det,MARV entry inh,NS1 inh,RE007 growth inh,Lassa entry inh,StopGo reporter
CCOC(=O)N1CCN(C(=O)CSCC(=O)Nc2nc(-c3ccc(Cl)s3)cs2)CC1,13µM*,?,-7.3%,-13%,-13%,10%,-29%,?
O=C(CSC1=NCCS1)N1CCN(c2ccc(Cl)cc2)CC1,4%,9%,0.7%,-24%[46.1 µM],-10%,-15%,-12%,?
CCOC(=O)c1ccc(NC(=O)C2CCCO2)cc1 (stereo not given),-12%,1%,3.2%,1%,-13%,-22%,23%,63%[activator]
CCCS(=O)(=O)N1CCCC(C(=O)NCCc2cccc(C)c2)C1 (stereo not given),-2%,·,·,·,-1%,-3%,·,-26%

# Compounds as they come (roughly 4.7% active in at least one column).
